# Source: PubChem BioAssay
# VDR inh – inhibitors of human vitamin D receptor; AID 504847; P11473; VDR-SRC2-3 peptide fluorescence polarization, 2 h; Potency, µM, inactives show max response, negative = inhibition, usual class: inhibitors; actives 0.93% (n = 400,000); active = well fitted inhibition curve with a large enough effect; inconclusive = small, poorly fitted or top-dose-only effect, or another doubt; inactive = no such curve, though single readings can be large or run the other way; also: series mostly up to about 120 µM
# Target sequence (P11473 whole entry, looked up): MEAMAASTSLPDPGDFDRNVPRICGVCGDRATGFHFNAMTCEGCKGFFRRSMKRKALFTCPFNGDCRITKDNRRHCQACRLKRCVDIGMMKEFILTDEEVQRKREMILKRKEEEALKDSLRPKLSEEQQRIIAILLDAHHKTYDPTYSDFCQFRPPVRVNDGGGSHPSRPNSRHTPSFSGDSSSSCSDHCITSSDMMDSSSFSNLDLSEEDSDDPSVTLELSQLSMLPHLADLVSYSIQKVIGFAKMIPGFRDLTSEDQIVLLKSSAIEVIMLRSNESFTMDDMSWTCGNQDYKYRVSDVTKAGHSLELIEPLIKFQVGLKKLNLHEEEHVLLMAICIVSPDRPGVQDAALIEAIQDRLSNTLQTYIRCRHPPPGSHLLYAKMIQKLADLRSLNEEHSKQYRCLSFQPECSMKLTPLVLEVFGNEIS
#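 Signal is fluorescence polarization, reporting how far test compounds block the interaction of VDR with the SRC2-3 coregulator peptide after a 2 h room-temperature incubation.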
# * marks the source's active call; other numbers are inactive results; ? = inconclusive; & = joins results of further samples. % is scaled to controls: 0 for no effect and ±100 for the full control effect; potency is read from the fitted curve at half-maximal effect.
# Sample of the layout:
VDR inh | Molecule
7.2% | CCOC(=O)c1cnc(-c2ccccc2)nc1Oc1ccc(Cl)c(Cl)c1
-22.8% | CC(=O)Nc1ccc2nc(NC(=O)c3ccco3)sc2c1
-3.2% | CCN(CC)S(=O)(=O)c1ccc2oc(SCC(=O)NCc3ccccc3)nc2c1
5.8% | Cn1cc(S(=O)(=O)N2CCOCC2)cc1C(=O)Nc1cccc(C#N)c1
-4.4% | CC(C)(C)NC(=O)COC(=O)C1c2ccccc2Oc2ccccc21

# Main list, from the start:
VDR inh | Molecule
7.2% | CCOC(=O)c1cnc(-c2ccccc2)nc1Oc1ccc(Cl)c(Cl)c1
-22.8% | CC(=O)Nc1ccc2nc(NC(=O)c3ccco3)sc2c1
-3.2% | CCN(CC)S(=O)(=O)c1ccc2oc(SCC(=O)NCc3ccccc3)nc2c1
5.8% | Cn1cc(S(=O)(=O)N2CCOCC2)cc1C(=O)Nc1cccc(C#N)c1
-4.4% | CC(C)(C)NC(=O)COC(=O)C1c2ccccc2Oc2ccccc21
22.9% | CCOC(=O)c1cnn(-c2c(Cc3ccccc3)c(C)nc3c(-c4ccccc4)c(C)nn23)c1N
? | COc1ccc(Nc2nc3ccccc3c(=O)[nH]2)cc1
4.5% | Cc1ccccc1NS(=O)(=O)c1cc(C(=O)Nc2ccccc2-c2ccccc2)ccc1Cl
16.4% | Cc1ccc(C)c(N2C(=O)N(Cc3cccc(C(F)(F)F)c3)c3ccccc3S2(=O)=O)c1
1.0% | NS(=O)(=O)c1cccc(NS(=O)(=O)c2ccc(/C=C/C(=O)O)cc2)c1
2.4% | CCOc1cc(NC(=O)c2ccco2)c(OCC)cc1NC(=O)c1cc(OC)c(OC)c(OC)c1
2.7% | Cc1ccc(S(=O)(=O)N2CCC(C(=O)NCCCN3CCCC3=O)CC2)cc1C
-13.0% | Nc1ccccc1OCCOCCOc1ccccc1N
7.3% | Cc1cccc(-c2nc(SCc3cc(=O)c4cccc(F)c4[nH]3)n[nH]2)c1
-4.4% | CC(/C=N\Nc1nnc2c(n1)[nH]c1c(C)cccc12)=C\c1ccco1
-11.7% | COc1ccc(C(O)P(=O)(OC(C)C)OC(C)C)cc1OC (stereo not drawn)
2.9% | CCOC(=O)C1(Cc2ccc(Cl)cc2)CCN(C(=O)CCc2ccncc2)CC1
-9.7% | CC(C)N1CCN(Cc2nc(-c3ccccc3)cs2)CC1CCO (stereo not drawn)
-12.4% | CCn1c(SCC(=O)N(C)C)nc2cc(S(=O)(=O)N3CCCCC3)ccc21
-21.5%&10.5% | Cc1cccc(C)c1OCCCn1c(CCNC(=O)C2CCCCC2)nc2ccccc21
-0.7% | Cc1cccc([C@@H]2[C@@H]3C(=O)N(Cc4ccccc4)C(=O)[C@@H]3[C@]3(C)C(=O)N(c4ccc(Br)cc4)C(=O)N23)c1
-0.8% | CC(Oc1ccccc1F)C(=O)NCCN1CCCCC1 (stereo not drawn)
-10.7% | Cn1cnc([N+](=O)[O-])c1SCC(O)CN1CCCCC1 (stereo not drawn)
6.5% | O=C(Nc1ccc(N2CCN(C(=O)c3ccco3)CC2)cc1)C(c1ccccc1)c1ccccc1
-5.0% | CCOC(=O)C1Cn2c(nc3c(c2=O)C(C)(C)Cc2ccccc2-3)S1 (stereo not drawn)

# Five of the entries above in order of the VDR inh value, falling:
VDR inh | Molecule
7.2% | CCOC(=O)c1cnc(-c2ccccc2)nc1Oc1ccc(Cl)c(Cl)c1
2.9% | CCOC(=O)C1(Cc2ccc(Cl)cc2)CCN(C(=O)CCc2ccncc2)CC1
-4.4% | CC(C)(C)NC(=O)COC(=O)C1c2ccccc2Oc2ccccc21
-11.7% | COc1ccc(C(O)P(=O)(OC(C)C)OC(C)C)cc1OC (stereo not drawn)
-12.4% | CCn1c(SCC(=O)N(C)C)nc2cc(S(=O)(=O)N3CCCCC3)ccc21

# The results go on:
VDR inh | Molecule
17.7% | Cc1ccc(S(=O)(=O)CCC(=O)N(C)c2c(N)n(Cc3ccccc3)c(=O)[nH]c2=O)cc1
16.8% | N=c1c2c3c(sc2ncn1CCCN1CCOCC1)CCCCC3
8.6% | COc1ccc(Cc2nc3ccc(C(=O)NCc4cc(C)no4)cc3o2)cc1
23.0% | Fc1ccc(-c2cc(-c3nc(-c4ccccc4)no3)[nH]n2)cc1
8.6% | COC(=O)c1ccc(NC(=O)Cn2c(=O)nc(-c3ccccc3)c3ccccc32)cc1
2.1% | Cc1ccc(C(=O)n2nc(C)c(S(=O)(=O)N3CCCCCC3)c2C)cc1C
-4.2% | O=C(c1ccc2ccccc2c1)N1CCN(c2ccc(O)cc2)CC1
-13.7% | CC(C(=O)N1CCc2ccccc21)N1CCN(c2cccc(C(F)(F)F)c2)CC1 (stereo not drawn)
4.8% | COc1cc(Br)c(S(=O)(=O)Nc2c(C)n(C)n(-c3ccccc3)c2=O)cc1OC
56.2µM* | O=C1[C@H]2CCC=C[C@H]2[C@H](c2ccccc2Br)N1Cc1ccccc1
13.1% | O=C(NC1CCCCC1)C(c1cccs1)N(Cc1cccs1)C(=O)c1cccs1 (stereo not drawn)
5.6% | NS(=O)(=O)c1ccc(CCNC(=O)C(=O)Nc2cc3c4c(c2)CC(=O)N4CCC3)cc1
-1.3% | CCOC(=O)C(CC)n1cnc2c(nnn2-c2ccc(OC)cc2)c1=O (stereo not drawn)
0.8% | CN1CCN(CCCN2c3ccccc3Sc3ccccc32)CC1
4.7% | Cc1ccc(S(=O)(=O)N(C)Cc2ccc(C(=O)NN=C(CC(C)C)CC(C)C)cc2)cc1
3.4% | C/C(CC(=O)Nc1cc(C)ccn1)=N\NC(=O)C(=O)Nc1cccc(C)c1
1.8% | O=C(O)C1CCCN1C(=O)C12CC3CC(CC(C3)C1)C2 (stereo not drawn)
-8.0% | COc1ccc(-c2cc(C(F)(F)F)nc(SCC(=O)Nc3ccc(O)cc3)n2)cc1OC
13.1% | COc1ccc(NC(=O)CN2C(=O)CSc3ncccc32)cc1
0.1% | COc1cccc(CSc2nc3n(n2)C(c2cccs2)C(C(=O)Nc2ccccc2C)=C(C)N3)c1 (stereo not drawn)
-14.0% | Nc1ncnc2c1ncn2[C@@H]1O[C@H](CNC(=O)[C@@H](N)CO)[C@@H](O)[C@H]1O
-1.8% | CN(C(=O)CSc1nnc(-c2ccc(OC(F)F)cc2)n1N)C1CCS(=O)(=O)C1 (stereo not drawn)
18.5% | COc1ccccc1Nc1nn2c(=O)c3ccc(C(=O)Nc4ccc(F)cc4)cc3nc2s1
-10.7% | COc1cccc(N2CCN(C(=O)CCc3nnc4ccc(N5CCOCC5)nn34)CC2)c1
-0.3% | Cc1ccc(C(C(=O)NCc2ccco2)N(C(=O)CNC(=O)c2cccs2)c2ccc(C)cc2C)cc1 (stereo not drawn)
-5.1% | CCCCNC(=S)Nc1ccc(Oc2ccccc2)cc1
-8.3% | CC(C)(C)NC(=S)Nc1cccc(C(F)(F)F)c1
-12.3% | O=C(c1nn2c(C(F)(F)F)cc(-c3cccs3)nc2c1Cl)N1CCCc2ccccc21
-6.0% | CN(CC(=O)Nc1ccc(F)cc1)C(=O)COC(=O)c1cc(Br)c(Br)s1
5.8% | COCC(=O)N1CCC2(CC1)CCN(C(=O)Nc1ccc(OC)cc1)CC2
-3.0% | N#Cc1c(NC(=O)COC(=O)c2ccc(S(=O)(=O)N3CCCC3)cc2)sc2c1CCCCC2
-19.7% | Cc1ccc(NC(=O)C(=O)Nc2ccccn2)cc1
-15.5% | CCOC(=O)Cc1nnc(NC(=O)c2ccco2)s1
2.8% | CNCc1c(OCc2ccc(F)cc2)ccc2ccccc12
5.1%&-1.6% | Cc1ccc(-c2nc(SCC(=O)NCC3CCCO3)c(-c3ccc(C)cc3)[nH]2)cc1 (stereo not drawn)
2.4% | CSc1ncccc1C(=O)OCC(=O)NCc1ccc2c(c1)OCO2
14.1% | Cn1cc(C(=O)Nc2ccc(Cl)c(Cl)c2)cn1
7.5% | NCCCC[C@H]1CNC(=O)C(=O)N1CCCCC1CCCCC1
10.6% | C/C(CC(=O)N1CCN(C=O)CC1)=N\NC(=O)c1ccc([N+](=O)[O-])cc1
11.4% | Cc1ccc2c(c1)N(CC(=O)Nc1ccccc1C(F)(F)F)C(=O)c1cccnc1O2
0.2% | Cc1c(CC(=O)N[C@@H](C)C(=O)O)c(=O)oc2c(C)c3occ(-c4ccccc4)c3cc12
-8.8% | CCOC(=O)[C@H]1[C@H]2COc3ccc(Cl)cc3[C@@H]2N2C(=O)[C@@H](C)NC(=O)[C@@]12C
-9.4% | COc1ncccc1C(=O)N1CCCC(N2CCN(c3cccc(Cl)c3)CC2)C1 (stereo not drawn)
10.1% | COCCCn1c(SCC(=O)Nc2ccc(OC)cc2)nc2c(sc3ccccc32)c1=O
3.9% | COc1ccc(CCNC(=S)Nc2cccc(C)c2C)cc1
-24.7% | Cc1cc(Cl)ccc1OCC(=O)N(Cc1ccco1)C1CCS(=O)(=O)C1 (stereo not drawn)
-8.9% | CN(C)CCCN1C(=O)CSC1c1ccccc1 (stereo not drawn)
-13.0% | CCOC(=O)C1=C(CC)Nc2ccccc2N=C1NC(=O)c1ccc(S(=O)(=O)N(C)C)cc1
12.8% | O=C(CSc1nnc(NC(=O)NC2CCCCC2)s1)Nc1ccccc1F
-7.2% | Cc1ccc(Cc2nc(-c3ccncc3)no2)cc1

# The results go on.
VDR inh | Molecule
18.3% | COc1ccc(C2(NC(C)=O)CCN(C(=O)c3cccs3)CC2)cc1
-21.6% | O=C(c1ccco1)N1CCN(CC(=O)N(C2CCCCC2)C2CCS(=O)(=O)C2)CC1 (stereo not drawn)
-0.6% | CCCCNC(=O)C(C#N)c1nc2ccccc2nc1N1CCN(Cc2ccc3c(c2)OCO3)CC1 (stereo not drawn)
9.9% | CCC(C)C(=O)N1CCCC(c2nc(-c3cccs3)no2)C1 (stereo not drawn)
13.8% | Cc1cnn(-c2cc(Oc3ccccc3)ncn2)c1
-9.1% | Cc1ccc(OCCCC(=O)NC(C)c2ccccc2)cc1 (stereo not drawn)
18.0% | Cc1ccc(OCC(=O)Nc2ccccc2C(=O)OCc2cc(=O)n3c(C)csc3n2)cc1
-11.1% | Cc1ccc(C(C)(C)C)c(OCCCn2ccnc2)c1
10µM* | CC(=O)OCCCNc1cc(Sc2ccc(Cl)cc2)c2nonc2c1[N+](=O)[O-]
-19.8% | CCCOc1ccc(CNC(=O)c2ccc3nc(N4CCOCC4)sc3c2)cc1
-9.0% | CS(=O)(=O)N1CCC(C(=O)Nc2ccc(C(F)(F)F)cc2)CC1
-6.2% | CCCn1c2c(c(O)c(C(=O)NCc3ccccc3)c1=O)CCCC2
-26.0% | O=C(CCc1nc2ccccc2s1)N1CCN(c2ccccc2)CC1
-8.7% | Cn1c2c(c(=O)n(C)c1=O)C(C(F)(F)F)(C(F)(F)F)N=C(CCC1CCCCC1)N2
-4.5% | CCc1cccc(OCCCn2ccnc2)c1
10.2% | O=C(NCc1nc2ccccc2[nH]1)C1=C[C@@H](C2CC2)C[C@@H](OCc2ccc(CO)cc2)O1
6.5% | Cn1c(SCc2ccc(Br)cc2)nc2c([nH]c3ccccc32)c1=O
-20.5% | COc1ccc(N(CC(=O)Nc2ccccc2C(F)(F)F)C2=NC3CS(=O)(=O)CC3S2)cc1 (stereo not drawn)
5.0% | COC(=O)c1ccc(CNC(=O)CSC(C)C(=O)Nc2cc(C)on2)cc1 (stereo not drawn)
7.8% | N#C/C(=C\c1c(F)cccc1Cl)c1nn(-c2ccccc2)c(-n2cccc2)c1C#N
17.7% | O=C(c1cccc(S(=O)(=O)N2CCOCC2)c1)N(CCc1ccccc1)Cc1ccccc1
-1.7% | Cc1cc(C)c(C#N)c(Cl)n1
4.9% | O=C(Nc1ccc(F)cc1F)C1CCN(c2ncccn2)CC1
-11.2% | CC[C@@]1(C(=O)OC)N[C@H](CN(C)C(=O)Nc2ccc(C)cc2)[C@@H]2C(=O)N(Cc3ccccc3)C(=O)[C@@H]21
4.0% | O=S(=O)(c1ccc(Cl)nc1)N1CCCCC1
-27.5% | Cc1cccc(C)c1NC(=O)CCCSc1nc2ccccc2s1
? | CCOC(=O)C(=CNc1ccc(N2CCCCC2)c(S(=O)(=O)Nc2ccccc2OC)c1)C(=O)OCC
-14.5% | O=C(CSc1cccc[n+]1[O-])Nc1ccc([N+](=O)[O-])cc1Cl
5.4% | Cc1ccc(C(=O)CCC(=O)Nc2cc(C)ccn2)cc1
-1.0% | Cc1ccc(S(=O)(=O)NCCC(=O)N2CCC(C(N)=O)CC2)cc1C
5.9% | Cc1ccc2c(c1)N(C(=O)Nc1ccc(Br)cc1F)CCO2
-5.1% | NC(=O)c1ccccc1OC1CCC1
-19.0% | CCn1cc(S(=O)(=O)Nc2ccc3c(c2)OCCO3)cn1
6.2% | CCCCN(CC(=O)NC(C)(C)C)C(=O)C(=O)Nc1ccc2c(c1)OCCO2
0.6% | Cc1cccc(NC(=S)NCCc2ccc3c(c2)OCCO3)c1C
-2.7% | CCN(Cc1cc2ccccc2[nH]c1=O)C(=O)c1cccnc1
4.5% | COC(=O)c1cc(NC(=O)CN2CCc3cc4c(cc3C2)OCCCO4)cc(C(=O)OC)c1
8.9% | CC(=O)Nc1ccc(OCc2nnc(-c3ccccc3)o2)cc1
-19.4% | CCN(C(=O)C1CCN(c2nc(-c3ccc(OC)cc3)no2)CC1)c1ccccc1
-15.6% | COC(=O)c1ccc(C23CC4(C2)[C@H](CN(CC2CCCCC2)[C@@H]4c2ccccc2)C3c2ccccc2)cc1 (stereo partly drawn)
12.8% | Cc1ccsc1C(=O)Nc1ccc2c(c1)OCCO2
-1.1% | Cc1nc(N2CCN(c3ccccn3)CC2)c2c(C)c(C(=O)N3CCN(c4ccccc4F)CC3)sc2n1
0.0% | Cc1ccc(C(=O)c2sc3nc4c(cc3c2N)CCC4)cc1
5.5% | CC(C)Oc1cc(C(=O)N2CCC(N3CCCCC3)CC2)ccc1Nc1nnc(Cl)c(Nc2ccccc2S(C)(=O)=O)n1
-12.5% | CCCNC(=O)c1ccccc1NS(=O)(=O)c1ccc2c(c1)OCCO2

# Only part of the results is shown; rates above refer to the full screens.
